From PubChem
E coli growth = E. coli growth inhibition, primary screen, OD600; AID 1053175, 2014; 330,000 tested, 0.21% active; Escherichia coli growth, 23 h; hits give low values; OD600 absorbance (test concentration not listed);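 active means OD600 absorbance below the run mean of sample wells minus 3.6 SD, in any replicate, cut at about 0.56 in these data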;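 further: stock transfer was 300 nL into about 60 µL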
B2AR ag = beta2AR agonists driving receptor internalization, primary screen, cell-based, FAP fluorogen, flow cytometry. Beta-2 adrenergic receptor (Homo sapiens), P07550. Am2.2-beta2AR cells; reference of the scale not given here. response, % (test concentration not listed). 340,000 tested, 0.43% active. AID 504454, 2011;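 active means response above a set limit, near 3 SD of response in nonfluorescent compounds, cut at about 42% in these data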;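 further: stock transfer was 100 nL into about 11 µL; a reference agonist was the positive control; negative values mostly stem from fluorescent compounds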
Target sequence (P07550 whole entry, looked up): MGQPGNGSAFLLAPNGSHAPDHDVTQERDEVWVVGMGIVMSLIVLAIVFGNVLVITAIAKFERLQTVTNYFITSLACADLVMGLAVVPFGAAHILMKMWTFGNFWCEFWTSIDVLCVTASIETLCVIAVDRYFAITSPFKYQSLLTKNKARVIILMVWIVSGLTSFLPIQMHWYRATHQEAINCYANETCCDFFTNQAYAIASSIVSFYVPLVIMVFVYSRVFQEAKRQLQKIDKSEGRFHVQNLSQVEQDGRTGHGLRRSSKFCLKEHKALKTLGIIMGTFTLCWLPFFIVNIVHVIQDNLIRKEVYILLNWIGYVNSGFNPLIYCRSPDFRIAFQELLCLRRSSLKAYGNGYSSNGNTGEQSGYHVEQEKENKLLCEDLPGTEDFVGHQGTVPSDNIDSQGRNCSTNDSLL
HNF4A DNA FP = change in binding of human HNF4A to DNA, primary screen, biochemical, fluorescence polarization, FITC-DNA | 360,000 tested, 0.3% active | AID 1224865, 2016 | Hepatocyte nuclear factor 4-alpha (Homo sapiens), P41235 | 1 h | activity change, % at 10 µM; in the data active means activity change above about 30%, passing the limit was not always enough;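 further: controls were the assay level and a saturating level of protein; the project sought stronger binding though the title names inhibitors; some compounds called inactive have numbers as strong as hits; positive values seem to mean higher polarization but the record does not say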
Vif TR-FRET = inhibitors of Vif binding to APOBEC3G peptide, primary screen, biochemical, TR-FRET, GST-Vif 1-94, biotin-A3G peptide, dose response retest (AID 1117319); 260,000 tested, 0.57% active; TR-FRET GST-Vif / biotin-A3G peptide binding; higher % means a stronger effect; test concentration not given here; strong numbers were not always called active; Virion infectivity factor (Human immunodeficiency virus type 1 group M subtype B (isolate …; one-dose inhibition, %; IC50 in µM for titrated hits;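 active means above the screen mean plus three standard deviations and confirmed in dose response; inconclusive means results disagree or hit not tested in dose response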;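 further: Vif residues 1-94 fused to GST binding biotinylated APOBEC3G peptide 110-148; 0% = full assay without inhibitor and 100% = GST in place of GST-Vif; retest series ran down from 100 µM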
UCH37 inh = inhibitors of human UCH37 deubiquitinase, primary screen, biochemical, Ub-AMC cleavage, fluorescence | Ubiquitin carboxyl-terminal hydrolase isozyme L5 (Homo sapiens), Q9Y5K5 | 330,000 tested, 0.33% active | purified proteasome/UCH37 | inhibition, % (no concentration beside the values);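 active means mean of two replicates above 20%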;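 further: 0% = compound-free wells with enzyme and 100% = wells lacking proteasome; stock transfer was 100 nL into about 20 µL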
Target sequence (Q9Y5K5 whole entry, looked up): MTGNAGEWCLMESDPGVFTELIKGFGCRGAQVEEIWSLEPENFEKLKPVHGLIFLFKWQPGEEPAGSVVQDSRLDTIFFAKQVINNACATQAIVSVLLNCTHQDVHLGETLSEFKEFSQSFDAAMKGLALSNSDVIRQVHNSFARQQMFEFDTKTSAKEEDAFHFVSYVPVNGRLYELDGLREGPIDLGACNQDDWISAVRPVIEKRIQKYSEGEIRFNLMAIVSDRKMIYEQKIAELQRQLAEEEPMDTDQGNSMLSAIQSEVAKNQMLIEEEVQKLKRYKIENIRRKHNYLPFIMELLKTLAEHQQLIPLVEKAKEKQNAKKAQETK
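Material: Human UCH37 enzyme supplied as purified proteasome complex | Schedule: 30 min preincubation with enzyme, 25 min cleavage at room temperature | Detection: AMC fluorescence 355/460 nm | Measure: % inhibition of Ub-AMC cleavage fluorescence | Controls: Wells without proteasome as full block, compound-free enzyme plus substrate as uninhibited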
Bfl-1 A1 inh = caspase 3/7 activation in MEF A1-2A-BIM cells, primary screen, A1 inhibitor project, cell-based, luminescence, HTS; Caspase-Glo 3/7 luminescence, 3 h; percent of clofoctol response, vehicle zero; caspase activation, % (no concentration beside the values); 330,000 tested, 0.066% active;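 active means over half of replicate activation scores above 10%, or exactly half above 10 with the replicate mean above 10; inconclusive means replicate mean below 10 yet half the replicates above 10; inactive means over half of replicates below 10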;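 further: wells of about 30 µL received 50 nL stock; many hits fall short of the cut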
LANA-H2A inh = blockers of LANA interaction with H2A/H2B – biochemical, FP readout, HTS, primary screen. Protein LANA1 (Human herpesvirus 8 type P (isolate GK18)), Q9QR71. cell-free LANA-H2A/H2B peptide, fluorescence polarization. inhibition, % (test concentration not listed). 320,000 tested, 0.6% active; in the data active means inhibition mostly above about 10%, no sharp cut-off; inactive means mostly below about 6.7%;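 further: stock transfer was 7.5 nL into about 10 µL; 0% = median of vehicle wells and 100% = median of positive control wells; one replicate is shown; the record names a cut of 25% in any replicate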
The depositor's hits bear a star; ? = inconclusive; . = no result given; & = joins results of further samples.

SMILES	E coli growth	B2AR ag	HNF4A DNA FP	Vif TR-FRET	UCH37 inh	Bfl-1 A1 inh	LANA-H2A inh
COc1cccc(NC(=O)C2CCCN2C(=O)OCc2ccccc2)c1 (stereo not given)	0.71	7	-3.9	80%	0.9	2.4	1.3
CC(=O)NCCc1nc2cc(NS(=O)(=O)c3ccc(Cl)cc3)ccc2n1C	0.71	1	3.7	0%	4.5	-0.3	-2.5
CC(=O)NC(=S)Nc1ccc(S(=O)(=O)N2CCOCC2)cc1	0.69	1	0.1	.	4.8	0.0	-1.7
CCc1ccc(C(=O)NNC(=O)OC)cc1	0.71	-1	-1.4	3%	4.6	0.3	0.8
Cc1nc2ncnn2c(N2CCN(S(=O)(=O)c3ccc(Br)cc3)CC2)c1C	0.66	-4	-2.0	2%	-0.5	0.8	-3.8
C=CCOC(=O)N1CCC2CC1c1cc(-c3cccc(C)c3)ccc12 (stereo not given)	.	3	5.0	-1%	.	.	.
Cc1cc2nc3c(nc2cc1C)C1(C(=O)O)CCC3(C)C1(C)C (stereo not given)	0.73	-2	2.0	7%	5.9	1.0	-0.3
O=C(CCNS(=O)(=O)c1ccc(Cl)cc1)N1CCC2(O)CCCCC2C1 (stereo not given)	0.7	0	1.2	2%	-1.2	1.2	2.2
O=C(CSc1ccccc1)N1CCCC(N2CCN(c3cccc(Cl)c3)CC2)C1 (stereo not given)	.	-11	4.6	.	.	-0.1	0.8
Cc1cc(C)nc(NC(=O)c2ccc([N+](=O)[O-])c(C)c2)n1	0.62	1	3.1	.	-0.1	-0.1	1.9
O=C(CSc1nc2ccccc2s1)Nc1ccc(N2CCOCC2)c(Cl)c1	0.66	-2	3.0	.	6.2	-0.2	-0.4
CC(C)(C)NC(=O)CSc1nc2ccc(NC(=O)CSc3nnc(N)s3)cc2s1	.	3	0.8	14%	.	-0.1	0.6
CCOC(=O)Cc1csc(N/C(=N/S(=O)(=O)c2ccc(F)cc2F)c2ccccc2)n1	0.71	-5	-2.7	.	6.5	0.8	-2.7
Cc1ccc(C)c(NC(=O)CSc2ncnc3nc[nH]c23)c1	0.67	-1	3.6	61%	3.7	0.1	3.3
N#Cc1nc(COc2ccccc2)oc1N1CCN(Cc2ccccc2)CC1	0.66	-9	2.3	-4%	1.1	0.6	4.0
CCCc1nc2sc3c(c2c(=O)[nH]1)CCCC3	0.72	-3	0.6	-2%	3.7	-0.5	-2.0
Cn1c(=O)[nH]c(=O)c2[nH]c(CN3CCN(C(=O)c4ccco4)CC3)nc21	0.64	9	-0.5	3%	1.6	-0.1	-2.9
Cc1ccc(S(=O)(=O)Nc2ccccc2C(=O)N2CCN(C)CC2)cc1	0.71	1	-0.4	6%	3.7	-0.9	102*
O=C(Nc1cccc(F)c1)C1CCN(C(=O)NCc2ccccc2)CC1	0.62	0	-1.3	-6%	1.1	-0.3	-4.8
Cc1cc(NC(=O)c2cc(C(C)(C)C)oc2C)no1	0.63	-1	-4.5	-5%	1.8	0.4	0.8
Clc1ccc2[nH]c3c(N4CCC5(CC4)OCCO5)ncnc3c2c1	0.77	.	.	-3%	-50	0.6	13
Cc1cc(=O)oc2cc(OCC(=O)NCC3CCC(C(=O)O)CC3)ccc12 (stereo not given)	0.71	0	6.2	.	-7.5	0.1	7.3
Cc1cc(C)cc(NC(=O)COC(=O)CNC(=O)C2CCCCC2)c1	0.68	-3	4.9	8%	3.1	0.5	-1.3
COc1cccc2sc(Nc3nnc(-c4cccs4)o3)nc12	0.66	8	-5.5	22%	-19	-6.1	-1.7
COC(=O)CC1C(=O)NCCN1C(=S)NC(=O)c1sc2ccccc2c1Cl (stereo not given)	0.7	-1	1.0	-6%	6.0	0.2	1.8
CC[C@@]12C(=O)N(c3ccc(C)cc3)C(=O)N1[C@H](c1ccc(Br)cc1)[C@@H]1C(=O)N(C(C)(C)C)C(=O)[C@@H]12	.	-2	-2.5	.	6.1	0.2	2.9
CCOc1ccc(C(c2c(O)nc(SC)n(C)c2=O)c2c(O)nc(SC)n(C)c2=O)cc1	0.72	-6	1.7	4%	4.2	-0.2	-0.9
COc1ccc(C(=O)NNc2ccccc2)cc1	0.7	0	-1.8	1%	2.5	0.2	-2.6
Cc1cccc(N2CCN(C(=O)c3ccc(NS(=O)(=O)c4c(C)noc4C)cc3)CC2)c1C	0.72	8	-0.9	12%	2.0	0.1	-0.6
CCS(=O)(=O)c1ccc2oc(SCC(=O)Nc3ccc(OC)c(OC)c3)nc2c1	0.69	4	-1.0	0%	0.9	1.8	-7.1
CCc1ccc(/C=C2/C(=O)N(c3ccccc3)C(=S)N2CC(=O)OC)s1	0.75	6	19	.	4.9	0.9	-1.5
CN(C)c1ccc(-c2noc(-c3ccccc3O)n2)cc1	0.76	3	-0.3	3%	-130	-13	-3.0
Cc1ccc(NC(=O)CSc2nnc([C@@H]3CCCN3C(=O)OC(C)(C)C)o2)c(C)c1	0.78	3	3.2	6%	2.1	0.8	-7.3
NC(=O)C(c1cccc(Cl)c1)c1ncc(C(F)(F)F)cc1Cl (stereo not given)	0.62	-2	-0.8	1%	2.8	0.7	-6.1
O=C1NC2(CCCCC2)C(=O)N1Cc1cc(=O)n2ccsc2n1	0.69	-6	-8.7	0%	1.9	-0.3	-2.0
CCOC(=O)C1CCN(C(c2cc3cc(C)cc(C)c3[nH]c2=O)c2nnnn2C2CCCCC2)CC1 (stereo not given)	0.73	1	4.7	-37%	-7.0	0.4	3.1
O=c1oc(-c2ccccc2)nc2sc3c(c12)CCCC3	0.68	10	1.6	-5%	-4.2	-5.5	-0.5
C=CCN1C(=O)CSc2ccc(C(=O)NCc3ccco3)cc21	0.65	-7	1.4	>100µM*	0.5	1.4	-3.1
COc1ccc(OC)c(NC(=O)CSc2nnnn2-c2ccc3c(c2)OCO3)c1	0.72	5	-3.0	-11%	0.2	0.6	-1.0
CCOc1ccc(NC(=O)CN(C)C(=O)CSCc2cccc(C)c2)cc1OCC	0.69	4	-2.7	-3%	3.1	?	-6.6

Four of these compounds in a different format.
| smiles | E coli growth | B2AR ag | HNF4A DNA FP | Vif TR-FRET | UCH37 inh | Bfl-1 A1 inh | LANA-H2A inh |
| --- | --- | --- | --- | --- | --- | --- | --- |
| CCOC(=O)C1CCN(C(c2cc3cc(C)cc(C)c3[nH]c2=O)c2nnnn2C2CCCCC2)CC1 (stereo not given) | 0.73 | 1 | 4.7 | -37% | -7.0 | 0.4 | 3.1 |
| O=c1oc(-c2ccccc2)nc2sc3c(c12)CCCC3 | 0.68 | 10 | 1.6 | -5% | -4.2 | -5.5 | -0.5 |
| C=CCN1C(=O)CSc2ccc(C(=O)NCc3ccco3)cc21 | 0.65 | -7 | 1.4 | >100µM* | 0.5 | 1.4 | -3.1 |
| COc1ccc(OC)c(NC(=O)CSc2nnnn2-c2ccc3c(c2)OCO3)c1 | 0.72 | 5 | -3.0 | -11% | 0.2 | 0.6 | -1.0 |

More compounds:
SMILES	E coli growth	B2AR ag	HNF4A DNA FP	Vif TR-FRET	UCH37 inh	Bfl-1 A1 inh	LANA-H2A inh
Cc1cc(C(=O)NC2CC(C)(C)Cc3c2cnn3-c2cccc(F)c2)n(C)n1 (stereo not given)	0.7	-11	-1.6	-10%	1.8	0.6	-3.2
COc1ccc(N(CC(=O)NCCC2=CCCCC2)S(=O)(=O)c2ccc(C)cc2)cc1	0.66	.	.	31%	-1.7	1.1	4.4
Cc1ncc([N+](=O)[O-])n1Cc1ccc(Br)cc1	0.67	-2	0.5	-5%	1.2	0.6	2.8
CCOC(=O)C(C#N)c1ccccn1 (stereo not given)	0.67	-5	4.5	3%	8.4	?	0.3
OC(COc1ccc2ccccc2c1)CN1CCOCC1 (stereo not given)	0.67&0.7	3&0	-1.5&-1.8	-1%&6%	3.9&6.2	0.0	-2.7
CCOc1ccc(Br)cc1C(=O)N/N=C/c1cccnc1	.	-10	-3.6	-2%	.	-0.2	0.8
O=C(NC1CCCC1)c1c(O)nc2sccn2c1=O	0.68	-6	-5.4	-2%	1.6	0.1	0.0
CCCOC1CCCN(C(=O)c2ccc(OC3CCN(C(=O)CCOC)CC3)cc2)C1 (stereo not given)	0.67	8	0.8	5%	0.1	0.5	4.7
COc1ccc(NC(=O)C2CCCN(CCCc3ccccc3)C2)cc1OCC(C)C (stereo not given)	0.63	22	-9.7	.	1.8	-1.8	-3.9
COC(=O)c1ccc(NC(=O)NCCCl)cc1	0.63	5	2.5	.	2.8	1.8	4.5
C/C(C=O)=C/c1ccccc1	0.68	-4	1.3	.	3.5	0.0	1.9
CC1(C)OC2OC(COC(=O)c3ccc([N+](=O)[O-])cc3)C3OC(C)(C)OC3C2O1 (stereo not given)	0.65	-9	-1.7	4%	5.5	0.1	1.0
CS(=O)(=O)c1nc(S(=O)(=O)c2ccc(Cl)cc2)c(N2CCCCC2)s1	0.68	-11	-4.7	.	1.3	0.1	0.1
CC1(c2ccc3ccccc3c2)NC(=O)N(CC(=O)N2CCN(S(=O)(=O)c3ccccc3F)CC2)C1=O (stereo not given)	0.7	4	-1.2	.	-0.6	0.1	-0.8
CCOC(=O)Cc1nnc2c(Nc3ccc(Cl)cc3)nc3nonc3n12	0.65	11	-1.1	6%	-2.3	0.4	1.3
CC1c2ccccc2N(S(=O)(=O)c2ccccc2)C1C (stereo not given)	0.68	2	2.1	-9%	2.3	.	.
COc1ccccc1C(CNC(=O)c1ccc(-c2ccccc2Cl)o1)N1CCCC1 (stereo not given)	0.63	-5	3.6	1%	3.8	-1.4	0.0
COc1ccc(Nc2oc(COc3ccc(Cl)cc3)nc2C#N)cc1	0.69	-14	1.4	-1%	1.4	0.4	2.8
COc1cccc(-c2c(C(=O)N/N=C(\C)c3cccnc3)nnn2-c2nonc2N)c1	.	-8	0.6	.	.	-0.5	-6.2
O=C(CSc1nc2ccc([N+](=O)[O-])cc2s1)c1ccc2ccccc2c1	.	-2	3.1	0%	.	.	.
CC(=O)Cc1ccccc1OCC(=O)O	0.69	3	0.8	-5%	-0.5	-0.5	5.5
Cc1ccc(OCc2nnc(SCC(=O)Nc3cccc4ccccc34)n2-c2ccccc2)cc1	0.8	0	-0.6	.	-0.9	0.6	-1.5
Cc1ccccc1Cn1ccc(NC(=O)c2cnn3cccnc23)n1	0.64	0	0.6	-4%	0.0	0.2	1.3
COc1ccc(CNC(=O)C2CCN(S(=O)(=O)c3cccc4nonc34)CC2)cc1	0.7	-1	-2.8	-1%	5.0	0.4	0.9
CC(=O)c1ccc(NC(=O)CCCN2C(=O)C(c3ccccc3)Oc3cccnc32)cc1 (stereo not given)	0.69	3	-4.1	.	-0.2	-0.5	-2.5
CC(=Nc1ccccc1)C1=C(O)CC(C)(C)CC1=O	0.64	-8	-1.6	2%	3.0	0.2	2.4
Nc1cc(N)nc(SCC(=O)NC2CCCCCCC2)n1	0.69	6	0.1	-6%	-1.5	.	.
CC(C)(C)NC(=O)C(=O)N/N=C/c1ccc(F)cc1	.	0	4.5	-1%	.	0.0	-2.6
CCCc1cc(C(=O)Nc2ccc(C(=O)c3ccc(F)cc3)cc2)n(C)n1	0.69	2	0.0	27%	5.7	-0.1	3.5
COC(=O)C1=NNC2C(=O)N(C3CCCCC3)C(=O)C12 (stereo not given)	0.73	-2	1.7	10%	1.6	-0.1	0.7
COc1cc(C2NC(=O)N(C)C3=C2C(=O)CCC3)cc(OC)c1OC (stereo not given)	0.67	1	-0.5	4%	2.8	-0.5	-4.1
